Screening results: PubChem, ICCB-Longwood Screening Facility, Harvard Medical School
Ba CapD inh = Bacillus anthracis CapD inhibitors, primary screen, biochemical, fluorescence intensity; CapD gamma-glutamyltranspeptidase (Bacillus anthracis Ames Ancestor); purified CapD enzyme, fluorescence intensity read-out; stronger effect = lower value; some hits fall short of the stated cut; z-score (no concentration beside the values); 0.23% of 140,000 active; AID 492967, 2010;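 active means z-score under -4 in either of two replicates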;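 further: stock transfer was 100 nL into about 40 µL; score is relative to mean and spread of the plate; one replicate is shown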
AID504770 = growth inhibition of E. coli YBA685, primary screen, V. cholerae RctB inhibitors. E. coli YBA685 rctB-dependent plasmid, OD600 growth, 3 h; stronger effect = lower value. z-score (concentration not given with the values). 0.27% of 130,000 active;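 active means z-score under -2 on both plates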;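 further: wells of about 30 µL received 100 nL stock; score is relative to mean and SD of the test wells; the first replicate is given; strong numbers were not always called active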
Starred values were filed as active, the others as inactive; x = no result given. A portion of the library (hit frequency here may not be typical).

nr	molecule	Ba CapD inh	AID504770
1	COc1ccc(C2N(c3ccc4c(c3)OCCO4)C(=O)C2(F)F)cc1OC (centres undefined)	x	2.5
2	N=C1/C(=C2\Nc3ccccc3S2)CC(=O)N1c1ccccc1	x	0.25
3	O=C(CCN1C(=O)/C(=C/c2ccc(Cl)cc2)SC1=S)Nc1ccccc1	-0.34	0.1
4	Cc1occc1C(=O)NCc1ccccc1	x	-0.15
5	CCSc1nc2ccccc2n1CC(N)=O	0.38	-0.25
6	CN1C(=C(C#N)C(=O)COc2ncnc3sc4c(c23)CCCC4)N(C)c2ccccc21	x	0.05
7	O=C(OCC(=O)N(C1CCCCC1)C1CCCCC1)c1ccc2c(c1)OCCO2	x	-0.75
8	Cc1cc(C(=O)COC(=O)Cn2cncn2)c(C)n1-c1ccc(F)cc1	x	0.6
9	Cc1nn(CCC(=O)O)c2nc(-c3cccs3)cc(C(F)(F)F)c12	x	-0.05
10	CCc1nnc(SCC(=O)O)n1N	0.22	0
11	CCc1nc2ccccc2c(C(=O)OCC(=O)Nc2ccc3c(c2)OCCCO3)c1C	x	-0.65
12	N#Cc1c(Nc2ccc(F)cc2)sc2c(O)cc(=O)[nH]c12	-1	-0.15
13	CCOC(=O)c1cn[nH]c1/N=C(\C)c1c(C)[nH]n(-c2nc3ccccc3s2)c1=O	-0.58	x
14	CCCCC(=O)Nc1cc2[nH]c(=O)[nH]c2cc1C	0.36	0.6
15	Cc1ccc(Nc2nc(C(=O)N(C)Cc3ccccc3)cs2)cc1	0.75	0
16	N#CCSc1nc(NCc2ccc3c(c2)OCO3)c2ccccc2n1	-0.4	x
17	CCNc1nc(N)nc(OCCNC(C)=O)n1	x	0.05
18	CC(C)Cn1c(SCC(N)=O)nc2ccccc2c1=O	x	-0.45
19	Cc1cc(C)cc(OCC(=O)Nc2nccs2)c1	0.34	0.85
20	Cc1nc2cccc(C(=O)N3CCCCCC3)c2o1	0.55	-0.45
21	CC1Cc2ccccc2N1C(=O)COc1ccc2c(c1)OCO2 (centres undefined)	x	-0.8
22	CCOc1ccc2ccccc2c1C1Nc2ccccc2-c2nnc(SCC)nc2O1 (centres undefined)	-0.15	x
23	Cc1cc(N(C)C)nc(Nc2ccccc2)n1	-0.57	0.2
24	O=C(NCc1ccccc1)C1CCN(C(=O)c2sccc2-n2cccc2)CC1	0.77	-0.4
25	Cc1ccc(S(=O)(=O)c2cc(N3CCOCC3)nc(-c3ccccc3)n2)cc1	0.96	x
26	CC(=O)N1N=C2CC(C)(C)OCC2C1c1ccccc1 (centres undefined)	0.025	x
27	O=[N+]([O-])c1cccc(-c2cc(-c3cccs3)cc(-c3ccccc3)n2)c1	-0.4	x
28	O/N=C/c1ccc(-c2cccs2)s1	59	-1.6
29	O=C1CSC(c2ccc(Cl)cc2)N1c1cccnc1 (centres undefined)	0.42	x
30	O=c1c(Cc2ccccc2)c(N2CCCCC2)nc2n1CCCS2	-0.52	-0.05

Record cards (already shown). Order of values: Ba CapD inh	AID504770
Cc1ccc(S(=O)(=O)c2cc(N3CCOCC3)nc(-c3ccccc3)n2)cc1 across the screens: 0.96	x
CCc1nnc(SCC(=O)O)n1N across the screens: 0.22	0

4 structures already listed, ordered by molar mass, highest first.
nr	molecule	Ba CapD inh	AID504770
27	O=[N+]([O-])c1cccc(-c2cc(-c3cccs3)cc(-c3ccccc3)n2)c1	-0.4	x
9	Cc1nn(CCC(=O)O)c2nc(-c3cccs3)cc(C(F)(F)F)c12	x	-0.05
4	Cc1occc1C(=O)NCc1ccccc1	x	-0.15
10	CCc1nnc(SCC(=O)O)n1N	0.22	0

Next section:
nr	molecule	Ba CapD inh	AID504770
31	CN(C)S(=O)(=O)c1ccc(N=Cc2c(-c3ccccc3)[nH][nH]c2=O)cc1	-1.3	x
32	Cc1cccc(N2CCN(CC(=O)Nc3ccc4c(c3)OC(F)(F)O4)CC2)c1C	x	-0.25
33	CC1Sc2ccc(Cl)cc2C(=O)/C1=C/N(C)C (centres undefined)	-1.8	0.6
34	Cc1ccc(C)c(NC(=O)CSc2nnc(C)c3ccccc23)c1	-0.81	x
35	O=S(=O)(c1cccc(C(F)(F)F)c1)N1CCNCC1	-0.17	0.25
36	N#Cc1ccc(COc2ncnc3sccc23)cc1	x	0.15
37	CC(C)c1ccc(S(=O)(=O)c2ccc(NN)cc2)cc1	x	-0.55
38	O=C(O)c1nn(C2CCOC2=O)c(=O)c2ccccc12 (centres undefined)	x	0.75
39	COc1ccc(N2CCN(C(=O)CNC3CC3)CC2)cc1	x	-0.15
40	CN(C)CCCn1c2c(c(SCC(=O)Nc3ccccc3)nc1=O)CCC2	x	1.8
41	O=C(NCc1ccccc1)/C(=C\c1ccccc1)NC(=O)c1ccccc1	-0.41	-0.1
42	COc1ccc(CCNc2ncnc3scc(-c4ccc(C)cc4)c23)cc1OC	0.15	x
43	CC(C)Cn1c(NC(=O)Nc2ccccc2F)c2ccccc2nc1=O	x	-0.6
44	NC(=S)c1cc(-c2ccccc2)c(C(F)(F)F)s1	-0.6	-0.85
45	Cc1nn(-c2ccccc2)c(C)c1NC(=O)COC(=O)c1ccccc1	x	-0.6
46	Cc1c(N=Cc2ccc(OC(=O)/C=C/c3ccc(Cl)cc3)cc2)c(=O)n(-c2ccccc2)n1C	-0.24	x
47	CC1(C)CC(N=Cc2c(O)[nH]c(=O)[nH]c2=O)CC(C)(C)N1	x	0.1
48	O=S(=O)(c1ccc(-c2cnco2)cc1)N1CCCC1c1ccc(F)cc1 (centres undefined)	0.29	-0.25
49	CCOc1ccc(O)c(C=NC2CCCC2)c1	x	-0.6
50	CN1c2ccsc2C(=O)/C(=C\N=S(C)(=O)c2ccc(Cl)cc2)S1(=O)=O (centres undefined)	2.1	-1.4
51	COc1cc(C=Nc2cc(Cl)ccc2O)ccc1O	-0.97	-0.6
52	CN(C)CC#CCC1(O)c2ccccc2-c2ccccc21	-0.29	-0.55
53	C=CCNc1nc2ccccn2c(=O)c1/C=C1\SC(=S)N(C)C1=O	1.3	1.8
54	Cc1ccc(C(=O)OC2CSC2)cc1	-0.14	-1.1
55	Cc1nnc(SCC(N)=O)c2ccccc12	-0.21	x
56	CC1CCCN(c2nc3nonc3nc2Nc2ccc3c(c2)OCO3)C1 (centres undefined)	0.07	x
57	COc1cccc(-c2nn(C)c3sc(C(=O)NCC4COc5ccccc5O4)cc23)c1 (centres undefined)	34	0.75
58	Cc1sc(N)c(C(=O)c2cccs2)c1C	0.09	0
59	CC(C)(C)NC(=O)Oc1ccc(Cl)cc1	0.93	0.65
60	N#CC1=C(N)Oc2n[nH]c(CSc3ccccc3)c2C1Cc1ccccc1 (centres undefined)	x	-0.7
61	Cc1cnc(C(=O)N2CCN(c3ccc(C(F)(F)F)cn3)CC2)cn1	0.95	-0.4
62	CC(=O)Nc1ccc(C2C3=C(CCCC3=O)Nc3c2c(C)nn3-c2nc3ccccc3s2)cc1 (centres undefined)	x	0.45
63	O=C1OCc2ccc(NS(=O)(=O)c3ccccc3)cc21	-0.2	-1
64	CC(C(=O)Nc1cccc(Cl)c1)n1cccc1 (centres undefined)	-0.93	2.2
65	O=C(CCNc1cccc(Cl)c1)c1ccco1	-1.4	2.1
66	NC(=O)C1CCN(Cn2nc(-c3ccccc3Cl)n(-c3ccccc3)c2=S)CC1	-0.26	x
67	COc1cc(COC(=O)NC(Cc2c[nH]c3ccccc23)C(N)=O)cc(OC)c1 (centres undefined)	0.72	x
68	O=C(Oc1ccc2cc(-c3nc4ccccc4s3)c(=O)oc2c1)c1ccccc1	-0.39	x
69	CC(OC(=O)CN1C(=O)COc2ccccc21)C(=O)NCc1cccs1 (centres undefined)	x	0.25
70	O=C1C2C3c4ccccc4C(C=Nc4cccc(Br)c4)(c4ccccc43)C2C(=O)N1c1ccccc1 (centres undefined)	0.015	x
71	CCOC(=O)CSc1nc2cc(C(=O)N3CCC4(CC3)OCCO4)ccc2c(=O)n1Cc1ccccc1OC	-0.49	x
72	Cc1cc(C2=Nc3ccccc3SC(c3c(F)cccc3Cl)C2)ccc1Cl (centres undefined)	-0.21	x
73	CC1=C(C(=O)OCCOc2ccccc2)C(c2cccc(Br)c2)NC(=O)N1 (centres undefined)	-1.1	x
74	O=C1/C(=C/c2ccco2)CC/C1=C\c1ccco1	-2.8	1.4
75	CCC(=O)Nc1ccc(OC)cc1OC	0.035	x
76	COc1ccccc1N1CCN(C(=O)OCc2cccc(OCc3ccccc3)c2)CC1	0.53	x
77	O=C(CSc1nnc2[nH]c(=O)ccn12)N1CCc2ccccc21	x	-0.2
78	O=C(NCc1ccccc1)c1ccc2c(c1)[nH]c(=S)n1c3ccccc3nc21	-0.53	x
79	CCCCOC(=O)c1ccc(-n2c3nc(=O)[nH]c(=O)c-3cc3ccccc32)cc1	-0.29	x
80	CC(N)=NCCc1ccncc1	0.065	x
81	CC1CCC(NC(=O)CCn2c(=O)c3cccn3c3cccnc32)CC1 (centres undefined)	19	0.25
82	O=C(/C=c1\[nH]c(=O)/c(=C/c2cccnc2)s1)c1ccc(Cl)cc1	-1.9	1.7
83	COC(=O)c1cc(=O)[nH]c(=S)[nH]1	x	0.8
84	Cc1ccn2cc(C(=O)O)nc2c1	6.1	-1.1
85	C=CCNC(=S)Nn1c(-c2ccccc2)nc2ccc(I)cc2c1=O	0.015	0.1
86	CCc1cccc(NS(=O)(=O)c2ccc3c(c2)CC(=O)N3)c1	0.84	-0.35
87	CCOC(=O)c1ccc(Nc2ncnc3ccccc23)cc1	-0.33	0.7
88	Cc1cc(COC(=O)NNC(=O)c2ccc(-c3ccccc3)cc2)no1	28	x
89	CC(C)C[C@H]1C(=O)N2CCC[C@H]2[C@]2(O)O[C@](NC(=O)[C@@H]3C=C4c5cccc6[nH]c(Br)c(c56)C[C@H]4N(C)C3)(C(C)C)C(=O)N12	50	x
90	O=C(CSc1c2c(nc3ccccc13)CCCC2)N1CCCc2ccccc21	9.5	-0.5

(further entries)
nr	molecule	Ba CapD inh	AID504770
91	O=C(c1ccc(F)cc1)N1N=C(c2c(-c3ccccc3)c3cc(Br)ccc3[nH]c2=O)CC1c1ccco1 (centres undefined)	0.64	x
92	COc1ccc(-c2csc(N3N=C(C)C(C(c4ccc(Cl)cc4)C(C#N)C(N)=O)C3=O)n2)cc1 (centres undefined)	-0.03	-0.55
93	O=C(O)c1ccccc1C(=O)Cc1ccc(I)cc1	-0.14	-0.25
94	CN=C(Nc1ccc(F)cc1)c1ccccc1	x	-0.9
95	Cc1nn(CCC#N)cc1C=C1C(=O)NC(=O)NC1=O	x	-0.1
96	CC1=NN(c2ccccc2)C(=O)/C1=C\N1CCC(C)CC1	-0.98	-0.05
97	N#Cc1c2c(c(NCCCO)n3c1nc1ccccc13)CCC2	0.9	x
98	Cc1ccc(C)n1-c1ccsc1-c1cc2nccc(-c3ccccc3)n2n1	0.15	x
99	FC(F)(F)c1cccc(N2CCN(c3ncnc4nc[nH]c34)CC2)c1	0.28	0.35
100	COc1ccc(NCc2ccc(OCC(N)=O)c(Cl)c2)cc1	-0.03	-0.2
101	CC1(C)CC2(CCCN(Cc3nc4c(c(=O)[nH]3)C3(CCCCC3)Cc3ccccc3-4)C2)CCO1 (centres undefined)	-0.41	x
102	Cc1cc(CN2CCOCC2)c(O)c(C2(C)CCCCC2)c1	0.44	0.35
103	CCOc1ccc(OCCC(=O)O)cc1	-0.21	-0.2
104	CCc1nc2ccccc2c(C)c1C(=O)O	x	-0.3
105	NC(=O)COc1ccc(Cl)cc1	10	0.1
106	CC(C)c1ccc2c(ccc[n+]2C)c1	46	-0.3
107	O=C(NC1CCN(Cc2ccccc2)C1)N1CCN(c2cccc(C(F)(F)F)c2)CC1 (centres undefined)	0.64	x
108	O=C(COC(=O)c1ccc(Br)cc1)c1ccc(Br)cc1	1.3	0.15
109	CCOC(=O)c1c(C)n(-c2ccccc2)c2ccc(OC(=O)c3ccc(S(=O)(=O)N4CCCCC4)cc3)cc12	-0.17	x
110	Cn1c(SCc2ccccc2)nnc1C1CCN(C(=O)c2ccc3c(c2)OCO3)CC1	x	-0.1
111	Cc1cc2nc(SCC(=O)O)[nH]c2cc1C	-0.59	x
112	COc1cc(-n2cnc3cc(C(=O)N4CCC5(CC4)OCCO5)ccc32)cc(OC)c1OC	0.075	x
113	CC(C)(C)OC(=O)NCCc1c[nH]c2ccccc12	-0.005	0.75
114	CC1(C)CC(NC(=O)CN2CCCC2=O)CC(C)(C)N1	x	-0.55
115	CC(OC(=O)c1cc(S(=O)(=O)N(C)C)ccc1N1CCCC1)C(=O)N1CCc2ccccc21 (centres undefined)	x	-3*
116	O=c1c2nccnc2nc(SCc2ccc(F)cc2)n1Cc1ccccc1	-0.3	-0.15
117	C/C(=N\NC(=O)N/N=C(\C)c1ccc(C)cc1)c1ccc(C)cc1	-0.39	x
118	Cc1n(CC(=O)c2ccc(F)cc2)c2ccccc2[n+]1C	0.2	0.05
119	CN=C1SC(C(=O)Nc2ccc(C)cc2Br)C(N)=C1C(=O)NCCN1CCOCC1 (centres undefined)	x	0.65
120	CCN(CC)c1ccc(NC(=O)CN2CCN(CC(=O)Nc3ccc(Br)cc3)CC2)cc1	-0.28	-0.6
121	O=C(/C=C1\SC(=O)N(CN2CCCCC2)C1=O)Nc1ccccc1	-2.4	0.65
122	Clc1ccc(OCc2nc(CSc3ccccn3)no2)c(Cl)c1	-0.24	-1.1
123	C#CCNc1cc(-c2ccccc2)nc2nncn12	1.8	-0.7
124	CCCCCCCCCCCCCCCC(=O)OCC1OC2OC(C)(C)OC2C2OC(C)(C)OC12 (centres undefined)	-0.095	x
125	CCCc1cc(=O)[nH]c(SCC(=O)c2cc(C)n(C)c2C)n1	x	-0.4
